Assay outcomes (PubChem)
StopGo RLuc: Primary qHTS Assay for Foot and Mouth Disease Virus Antivirals against NCGC Sytravon and CBC Compound Libraries: Renilla Luciferase Signal | HEK cells with a luciferase reporter of 2A StopGo recoding | Potency, µM (doses to about 57.5 µM), inactives show at the top dose signal change, negative = less light | 120,000 tested, 0.32% active; active means well fitted falling curve with a large enough effect; inconclusive means small, poorly fitted or top-dose-only effect; inactive means no such curve, though single readings can be large or run the other way; also: nearly all actives have a fitted effect of over 55% in size; overnight with compound
2A firefly: Primary qHTS Assay for Foot and Mouth Disease Virus Antivirals against NCGC Sytravon and CBC Compound Libraries: Firefly Luciferase Signal. HEK cells with a luciferase reporter of 2A StopGo recoding. Potency, µM (top dose mostly 57.5 µM), for inactives: at the top dose signal change, negative = less light. 120,000 tested, 0.23% active. AID 1745856, 2022; active = well fitted falling curve with a large enough effect; inconclusive = small, poorly fitted or top-dose-only effect; inactive = no such curve, though single readings can be large or run the other way; also: nearly all actives have a fitted effect of over 60% in size; overnight with compound
Numbers without * were called inactive; ? = inconclusive; & = joins results of further samples; [ ] = dose if it differs, or a comment. % is scaled to controls: 0 for no effect and ±100 for the full control effect; potency is read from the fitted curve at half-maximal effect.

Preview (five entries):
compound	StopGo RLuc	2A firefly
NC(=S)N/N=C/C1=C(c2ccccc2)C2C=CC1C2 (stereo not drawn)	2.6%	0.4%
CC1CCC(NC(=O)c2cc(Cl)ccn2)CC1 (stereo not drawn)	17.3%	180.0%[activator]
COc1ccc(CCNc2ncnc3c2nnn3C)cc1	11.5%	3.3%
CCCC(=O)Nc1ccc2nc(SCCOc3ccccc3)sc2c1	-19.3%	-18.5%
CCCCc1nc(CN2CCN(c3cccc(F)c3C#N)CC2)no1	8.8%	29.3%

Main list, from the first entry:
compound	StopGo RLuc	2A firefly
NC(=S)N/N=C/C1=C(c2ccccc2)C2C=CC1C2 (stereo not drawn)	2.6%	0.4%
CC1CCC(NC(=O)c2cc(Cl)ccn2)CC1 (stereo not drawn)	17.3%	180.0%[activator]
COc1ccc(CCNc2ncnc3c2nnn3C)cc1	11.5%	3.3%
CCCC(=O)Nc1ccc2nc(SCCOc3ccccc3)sc2c1	-19.3%	-18.5%
CCCCc1nc(CN2CCN(c3cccc(F)c3C#N)CC2)no1	8.8%	29.3%
CCC(C)(C)C1CCc2c(sc(NC=O)c2C#N)C1 (stereo not drawn)	-6.7%	0.1%
CCN(CC)C(=O)/C=C/c1csc(C)n1	10.8%	44.2%[activator]
O=C(CSc1nc(NC2CC2)c2ccccc2n1)NC1CCCC1	2.0%	-1.0%
COc1cccc(-c2c(NC(=O)c3ccc(Cl)cc3)oc3ccccc3c2=O)c1	-11.2%	13.8%
COc1ccc(S(=O)(=O)Cc2ccc(C(=O)NC3CCCCC3)o2)cc1	-5.2%	3.8%
NC(=O)c1ccc(CSc2cccc[n+]2[O-])cc1	14.9%	17.4%
COC(=O)c1ccc(Cn2c(SCC(=O)NCc3ccccc3)nc3ccccc32)cc1	20.7%	-4.5%
C=CCNc1nc(-c2ccc(NC(C)=O)cc2F)cs1	80.4%[activator]	221.0%[activator]
CCOc1ccccc1OCCCCn1c(-c2ccc(Cl)cc2)nc2ccccc2c1=O	1.0%	38.7%[activator]
COc1ccc(CN(C)C(=O)COc2cccc(-c3nc(-c4ccc(OC)cc4)no3)c2)cc1	-5.0%	67.0%[activator]
O=C(Nc1ccc2c3c(cccc13)CC2)C1CC1(Cl)Cl (stereo not drawn)	-14.8%	0.8%
CCOc1ccc(CC(=O)Nc2c(C(=O)c3ccc(F)cc3)oc3ccccc23)cc1OCC	-6.4%	-7.8%
CCc1cccc(C)c1Nc1c(-c2cccc(O)c2)nc2nc(C)cc(C)n12	2.2%	7.3%
COP(=O)(OC)OC(c1ccc(Cl)cc1)P(=O)(OC)OC (stereo not drawn)	-6.3%	-1.3%[11.5 µM]
COc1ccc(-c2nc(C#N)c(N3CCCCCC3)o2)cc1OC	-8.6%	33.6%[activator]
O=C(Nc1ccc(N2CCOCC2)c(Cl)c1)c1ccc2c3c(cccc13)CC2	5.1%	33.3%[activator]
CCOc1ccc(CCNC(=O)CSc2nnnn2-c2c(C)cc(C)cc2C)cc1OCC	?	?
CCCCCCNC(=O)c1cc(N)nc(Cl)c1	22.8%	21.1%
CSc1ccc(C2N=C(N)Nc3nc4ccccc4n32)cc1 (stereo not drawn)	-4.2%	9.0%
CC(C)OC(=O)NCCOC(N)=O	-4.7%	-0.7%
CCc1ccc(Nc2nn(-c3ccc(OC(F)(F)F)cc3)nc2C(C)=O)cc1	-1.4%	-5.0%
COC(=O)CN(Cc1ccccc1)Cc1ccco1	8.5%	12.7%
COc1cc(/C=C/C(=O)c2sc(C(C)(C)C)nc2C)cc(OC)c1O	?	17.0%
O=C(COc1ccc(Cl)cc1Cl)NC1CCS(=O)(=O)C1 (stereo not drawn)	-3.8%	0.0%
O=C1CCSC2(C(=O)N(Cc3ccc(F)cc3)c3ccccc32)N1c1cccc(F)c1 (stereo not drawn)	27.2%	-12.6%
CCCn1nc(C(=O)Nc2nc(-c3ccccn3)cs2)c2ccccc2c1=O	-2.8%	17.6%
Cc1ccc(NC(=O)Cn2c3ncccc3c(=O)n2-c2ccc(C)c(C)c2)c(Cl)c1	-5.9%	4.2%
COc1ccccc1C(=O)Nc1cccc(C(=O)OCc2cc(=O)n3ccsc3n2)c1	-5.8%	-2.6%
COc1ccccc1CNC(=O)C(Cl)(Cl)Cl	5.0%	17.2%
COC(=O)C1(C(=O)OC)CC(C(=O)OC)(C(=O)OC)C(C(=O)OC)(C(=O)OC)C1	14.9%	14.5%
Nc1ccc(S(=O)(=O)Nc2ccccn2)cc1	10.6%	-18.4%
COc1ccc(C)cc1NC(=O)Cn1c(=O)oc2cc(S(=O)(=O)NCc3ccccc3)ccc21	137.2%[activator]	0.6%
Cc1nc2ccccc2c(C)c1CC(=O)N(CC(F)(F)F)C(C)C1CC1 (stereo not drawn)	-10.5%	-6.7%
Cc1ccc(C(=O)c2oc3ccccc3c2NC(=O)COc2ccc(C(C)(C)C)cc2)cc1	7.0%	5.7%
Cc1ccc(C)c(NC(=O)C2CCCN(S(=O)(=O)c3cccc4nsnc34)C2)c1 (stereo not drawn)	-8.4%	0.0%
CC(C)NC(=S)NCCc1ccc(Cl)cc1Cl	37.4%[activator]	9.7%
CCONC(=O)C(NC(=O)Cc1ccc2ccccc2c1)C(C)C (stereo not drawn)	2.8%	0.8%
CC(Oc1ccc2ccc(=O)oc2c1)C(=O)N(C)Cc1cccc(F)c1 (stereo not drawn)	-4.8%	3.5%
CSc1ccccc1C(=O)Nc1ccc(C)c(F)c1	13.9%	102.5%[activator]
CC1CCCCC1NC(=S)NC1CC1 (stereo not drawn)	-4.4%	-7.8%
Cc1cccc(C)c1OCC(=O)N1CCC(NC(=O)c2ccccc2)CC1	-6.7%	-6.9%
CC(NC(=O)c1ccc(Br)o1)C12CC3CC(CC(C3)C1)C2 (stereo not drawn)	12.0%	8.0%
COC(=O)CSc1nc2c(c(=O)[nH]c(=O)n2C)n1Cc1ccccc1	-4.9%	-11.8%
CN(C)S(=O)(=O)c1ccc2oc(SCC(=O)N3CCCC3=O)nc2c1	-6.6%	27.6%
CCN(CC)C(=O)CSc1nc2cc3c(cc2c(=O)n1CCCC(=O)NCc1ccc2c(c1)OCO2)OCO3	2.0%	-23.7%
CCCc1[nH]nc2c1C(c1ccccc1OC)C(C#N)=C(N)O2 (stereo not drawn)	-12.2%	-12.2%
Cc1cccc(OC(=O)c2snnc2C)c1C	-15.8%	-13.4%
O=C(C1CCC(Cn2c(=O)c3sccc3n(Cc3ccccc3)c2=O)CC1)N1CCOCC1 (stereo not drawn)	-11.8%	-6.8%
Cc1cccc(OCC(=O)Nc2cc(-c3nc4ccccc4o3)ccc2C)c1	1.6%	61.3%[activator]
Cn1c(=O)n(C)c2cc(N3CCOCC3)c(NS(=O)(=O)c3cccc(C#N)c3)cc21	33.1%	32.5%[activator]
COc1ccc(S(=O)(=O)c2cn(C)c3cc(N4CCOCC4)c(F)cc3c2=O)cc1	-0.9%	-1.5%
O=C(Nc1ccc2c(c1)OCCO2)C(=O)c1c[nH]c2ccccc12	17.4%	77.9%[activator]
CC(OC(=O)c1cc(C2CC2)nn1-c1ccccc1)C(=O)Nc1ccc(C#N)cc1 (stereo not drawn)	-6.1%	-9.7%
CCNC(=O)CSc1ccccc1C(=O)OCC(=O)C(C)(C)C	-0.7%	0.1%
Cn1c(=O)c2c(nc(CN3CCN(c4ccc(F)cc4)CC3)n2Cc2ccccc2)n(C)c1=O	6.7%	-4.6%

Further compounds.
compound	StopGo RLuc	2A firefly
Cc1cccc(CCNC(=O)c2c[nH]c3ccc(S(=O)(=O)Nc4ccccc4F)cc3c2=O)c1	27.4%	-1.7%
Clc1cccc(-c2nnc(CN3CCN(c4ccccn4)CC3)o2)c1	4.5%	0.9%
O=C(c1cc(=O)c2cc(Cl)ccc2o1)N1CCN(C(=O)C2CC2)CC1	-6.9%	-1.0%
CCC(C)c1ccc(NC(=O)C2CC3C=CC2C3)cc1 (stereo not drawn)	20.8%	195.3%[activator]
O=c1[nH]c2ccc(-c3csc(Nc4ccc(Cl)cc4)n3)cc2o1	4.6%	0.0%
Cc1cccc(NC(=O)CC2C(=O)OCCN2Cc2ccccc2)c1 (stereo not drawn)	-0.3%	-4.6%
O=C(NCCc1cccnc1)c1cc(-c2ccncc2)nc2ccccc12	33.0%[activator]	19.5%
COc1ccccc1CN(C)C(=O)c1cc(C)nc2ccccc12	37.5%[activator]	?
CCOC(=O)c1c(C)[nH]c(C)c1S(=O)(=O)NCC(=O)NCc1cccc(C)c1	219.9%[activator]	31.6%
CCCCOc1ccc(C(=O)Nc2ccc(-c3nc4ccccc4s3)cc2C)cc1	9.5%	0.0%
Cc1ccc(NC(=O)C2CCN(S(=O)(=O)c3ccc4[nH]c(=O)ccc4c3)CC2)cc1C	-9.4%	-4.0%
CC(C)(C)C(=O)N1N=C(c2ccco2)CC1c1ccc2nccnc2c1 (stereo not drawn)	9.3%	1.2%
CCCCN(Cc1ccccc1)c1ccc(NS(=O)(=O)c2ccc(C)c(C)c2)cc1C(=O)O	93.0%[activator]	11.8%
CCOc1ccc(-c2cc(NC(=O)Nc3ccccc3Cl)c(C(=O)OC)s2)cc1	4.7%	110.0%[activator]
COc1ccc(Oc2c(C)oc3cc(OCC(=O)Nc4ccccc4F)ccc3c2=O)cc1	-0.6%	29.7%
COC(=O)C1CN(Cc2ccc(Cl)cc2)CCS(=O)(=O)N1Cc1cn(Cc2ccc(F)cc2)nn1 (stereo not drawn)	3.5%	-7.0%
CCN(c1ccccc1)S(=O)(=O)c1nnc(NC(=O)COc2ccccc2F)s1	-10.1%	-3.3%
COc1ccc(NC(=O)Cn2nc(-c3ccncc3)ccc2=O)cc1Cl	-8.2%	-14.3%
Cc1ccc(C)c(NC(=O)Cn2c(=O)n(Cc3nc(C)no3)c(=O)c3cc4c(cc32)OCO4)c1	2.9%&-4.9%	-2.0%&-10.1%
COc1ccc(NC(=O)C2CCN(c3nc4ccccc4o3)CC2)c(OC)c1	-11.1%	3.3%
CS(=O)(=O)N1CCC(C(=O)Nc2ccccc2SC2CCCC2)CC1	-2.2%	-0.5%
O=C(O)c1ccc(COc2ccc(F)c(Cl)c2)o1	?	?
CC(C)OCCN1CCC(N2CCCC2)CC1	-14.1%	0.0%
COc1cc(NC(=O)c2c(-n3cnnn3)sc(C)c2C)cc(OC)c1	19.6%	-1.0%
Cc1nn2c(=O)cc(COC(=O)c3ccc(NC(=O)c4ccc(C(C)(C)C)cc4)cc3)nc2s1	-8.5%	2.8%
O=C(O)c1ccc(-c2ccccc2)cc1F	-6.7%	21.3%
CCC(CC)c1nnc(NC(=O)c2ccc(Cl)c(S(=O)(=O)N3CCc4ccccc43)c2)s1	-21.5%	-15.0%
COC(=O)c1ccccc1NC(=O)C1=CC(c2ccc(C)cc2)=NS(=O)(=O)N1C	-9.5%	-18.5%
CCN(CC)S(=O)(=O)c1ccc(C(=O)NCCSc2c(-c3ccc(C)cc3)[nH]c3ccccc23)cc1	5.0%	0.5%
CCN(C(=O)c1cc2c(=O)oc3ccccc3c2s1)c1ccccc1F	1.7%	-6.3%
CCCCCCCNC(=O)Cc1cccs1	14.6%	44.7%[activator]
COCCNc1ncnc2c1c(-c1ccccc1)cn2-c1cccc(Cl)c1	-3.7%	-14.8%
Cc1ccc(OCCSc2nc3ccc(NC(=O)COc4ccc(C)cc4)cc3s2)cc1	-13.7%	-14.6%
COC(=O)c1ccc(COC(=O)c2ccccc2Cl)cc1	-3.8%	0.0%
COc1ccccc1-c1cc2nc(C)c(CCC(=O)NCc3ccc(C)cc3)c(C)n2n1	-1.0%	?
CCCn1c(NCCN(CC)CC)nc2c1c(=O)[nH]c(=O)n2C	12.6%	34.5%
Cc1ccc(-c2cc(C(=O)OCC(=O)NC(=O)NC(C)C)c3ccccc3n2)o1	29.9%	182.5%[activator]
CCOC(=O)C(C(=O)OCC)C(C(=O)OCC)(C(=O)OCC)C(C(=O)OCC)C(=O)OCC	4.0%	2.6%
O=C(Cn1c(=O)n2nc(-c3cccc(F)c3)nc2c2ccccc21)NCc1ccc(Cl)cc1	-6.3%	-4.1%
COc1cccc(NC(=O)CSc2nc(=O)n(Cc3ccncc3)c3c2CCC3)c1	-0.9%&15.3%	1.1%&-10.2%
CCCCCCCc1ccc(/C=C/c2ccc(OCCCC)cc2)nc1	-17.9%[1.06 µM]	9.2%
Cc1ccc(C)c(NC(=O)c2ncoc2-c2cccc(Cl)c2)c1	-11.6%	-9.7%
CC(=O)c1ccc(N2CCN(C(=O)Cn3ncc4c3-c3ccccc3OC4)CC2)cc1	-20.0%	-8.7%
COc1ccc(NC(=O)c2ccc3oc(=O)c(S(=O)(=O)c4ccc(F)cc4)cc3c2)cc1OC	-21.0%	-23.3%
